CDC25B-CDK2 inh: human CDC25B-CDK2/CyclinA binding inhibition; HTRF CDC25B-CDK2/CyclinA binding, anti-His/anti-Flag; stronger effect = higher value; z-score (test concentration not listed); 94,000 tested, 0.72% active; AID 1259370;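 further: score is relative to mean and SD of negative controls; strong numbers were not always called active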
TAR Tat displ: HIV-1 TAR-Tat binding disruption; HIV-1 TAR RNA, Tat peptide displacement FRET; stronger effect = higher value; z-score (concentration not given with the values); 100,000 tested, 0.6% active; AID 1259389;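 further: score is relative to mean and SD of negative controls; some compounds called inactive have numbers as strong as hits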
* marks the source's active call; other numbers are inactive results; / = no result given.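 How the source made its calls: active means z-score from 3 up in half or more of its runs; inactive means the rest.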

SMILES | CDC25B-CDK2 inh | TAR Tat displ
COc1ccc(-n2ccn3c(=O)[nH]nc3c2=O)cc1Cl | -1.2 | -0.51
Cc1c(C(=O)Nc2ccccc2)sc(N)c1C(N)=O | -1.8 | /
CC(C)n1c2ccc(F)cc2c2nc3ccccc3nc21 | -4.1 | -1.7
CN1CCN(c2cc(Nc3ccc4c(c3)OCO4)c3c4c(onc24)-c2ccccc2C3=O)CC1 | 10* | -7
CCOC(=O)c1sc(N2C(=O)c3oc4ccc(C)cc4c(=O)c3C2c2ccccc2F)nc1C (stereo not drawn) | -1.6 | -0.42
CCOc1cc(N)c(Cl)cc1C(=O)NCC1CN(Cc2ccc(F)cc2)CCO1 (stereo not drawn) | / | 1.1
CCOC(=O)C1CCN(CC(=O)Nc2ccc(C(F)(F)F)cc2Cl)CC1 | -2 | /
CC(=O)O[C@@H]1CC2C(C)(C)C=CC(=O)[C@]2(C)C2CC[C@@]3(C)[C@H](c4ccoc4)OC(=O)C4OC43[C@@]21C (stereo partly drawn) | / | -0.69
Cc1c(C(=O)Nc2ccc3c(c2)OCO3)sc2ncn(CC(=O)N3CC(C)CC(C)C3)c(=O)c12 (stereo not drawn) | / | 0.74
Cc1[nH]c(=S)[nH]c(=O)c1Cc1ccccc1 | -0.27 | /
CN(C)CCN(C(=O)c1nc2ccccc2s1)c1nc2ccc(F)cc2s1 | / | -0.16
Cn1c(=O)c2c(nc(N3CCCCC3)n2Cc2ccc(F)cc2)n(C)c1=O | -0.28 | /
NC(=S)Nc1csc(C(F)(F)F)c1-c1ccccc1 | -1.3 | /
CCOC(=O)c1cc(-c2ccc(S(=O)(=O)Nc3ccc(Cl)cn3)s2)on1 | / | 0.69
CCOc1ccc(-c2cccc(NS(=O)(=O)c3cccc(F)c3)c2)nn1 | / | -0.12
CCOc1cc(-c2ccc(OC(=O)c3ccc(F)cc3)cc2)cc(=O)c2c(C)oc(C)c12 | 0.44 | 0.51
Cc1ccc(CNC(=O)N2CCn3cccc3C2C)cc1 (stereo not drawn) | / | -0.26
CCOc1ccc(-c2cccc(NS(=O)(=O)c3cc(C)c(OC)cc3C)c2)nn1 | / | 1.1
Cc1c(C(=O)N2CCCC2)c(S(=O)(=O)Nc2cccc(Br)c2)c(C)n1C | / | 0.78
CCOC(=O)C(C)Oc1ccc(NC(=O)C(Cl)Cl)cc1 (stereo not drawn) | 0.43 | /
Cc1cc(C)nc(NC2=NCC(=O)N2c2ccccc2Cl)n1 | -1.6 | -1.6
COCCn1c(SCC(=O)c2ccc(Cl)cc2)nnc1-c1c[nH]c2ccccc12 | -1.9 | /
Cc1cc(C)c2c(=O)cc(C(=O)Nc3nnc(C)s3)oc2c1 | -1 | -0.4
Cc1nn(C)cc1/C=N/Nc1ncnc2c1cnn2C | -0.99 | /
CC(C)COC(=O)CCn1[nH]c(=O)c2ccccc2c1=O | -0.94 | /
C[C@@H]1O[C@@H](O[C@H]2[C@H](Oc3cc(O)c4c(c3)O[C@H](c3ccc(O)cc3)CC4=O)O[C@H](CO)[C@@H](O)[C@@H]2O)[C@H](O)[C@H](O)[C@H]1O | / | 0.91
CCOc1ccccc1OCc1nn2c(C)nnc2s1 | -0.14 | 0.44
O=C(Nc1ccc(Cl)cc1)c1nccnc1CO | 0.14 | 0.67
Cc1nc2sccn2c(=O)c1S(=O)(=O)NC(C)c1ccccc1 (stereo not drawn) | / | 1.1
Cc1cc(NS(=O)(=O)c2ccc(Nc3nc(-c4c(C)nc5ccccn45)cs3)cc2)no1 | -3 | 1.7
CC(CC(=O)Nc1ccc(F)cc1F)S(=O)(=O)c1ccc2c(c1)CCN2C(=O)C1CC1 (stereo not drawn) | / | -0.65
CC(=O)N1N=C(COc2ccc(Cl)cc2C)OC1c1cccs1 (stereo not drawn) | / | 0.25
CCOC(=O)C1=C(C)Nc2nc3ccccc3n2C1c1cccs1 (stereo not drawn) | -1.4 | -0.49
CCN(CC)c1ccc(C2Nc3ccccc3NC3=C2C(=O)CC(c2ccco2)C3)cc1 (stereo not drawn) | -1.2 | /
O=C(Cn1c(=O)sc2ccccc21)N1CCc2ccccc2C1 | 0.84 | 0.5
CCC(C)NC(=O)C(CC(C)C)NC(=O)C1CCCCC1 (stereo not drawn) | 0.19 | -1.7
O=C(NCc1ccc2c(c1)OCO2)C1CCCN(S(=O)(=O)N2CCOCC2)C1 (stereo not drawn) | / | 1
O=C(Cn1cc(S(=O)(=O)c2ccc(F)cc2)c(=O)c2ccccc21)Nc1ccc2c(c1)OCO2 | -1 | -0.46
CCN(CC)CCN(C(=O)C1=COCCO1)c1nc2c(F)cc(F)cc2s1 | / | 1.5
O=c1ccn(Cc2ccccc2)c(=O)[nH]1 | -0.63 | -0.4
O=C(c1ccc(Cl)c(NC2=NC3CS(=O)(=O)CC3S2)c1)N1CCN(c2ccccn2)CC1 (stereo not drawn) | / | -0.11
CCOC(=O)c1csc2ncc(C#N)c(=O)n12 | -1.2 | /
Cc1nnc(NC(=O)c2nn(-c3ccccc3)ccc2=O)s1 | -0.34 | -0.78
O=C(CC(=O)N1CCN(c2ccccc2)CC1)Nc1ccc2nc3n(c(=O)c2c1)CCCCC3 | -1.5 | -1.5
CCC(C)NC(=O)CN1C(=O)c2cccc3cccc1c23 (stereo not drawn) | -0.35 | 1.7
COc1ccc(-c2noc(CNS(=O)(=O)c3ccc(Br)cc3)n2)cc1 | -0.09 | 1.2
CC(=O)Oc1ccc(C2C(C(=O)OCCc3ccccc3)=C(C)NC3=C2C(=O)CCC3)cc1 (stereo not drawn) | -2.2 | 3.9
CSc1ccc(-c2nc3cnccn3c2NC2CCCCC2)cc1 | -1 | 1.2
CC1=C(c2cccc(Br)c2)S(=O)(=O)N=C1Nc1cc(C)cc(C)c1 | -7.1 | 0.28
CCN(CC)c1ccc(C2N(c3cccc(Cl)c3)C(=O)C3CCCN32)cc1 (stereo not drawn) | -0.45 | 0.52
COC(=O)c1c(SCc2ccccc2C)[nH]c2ccccc2c1=O | / | 1.6
CCC1CCCCN1CCCN1C(=O)c2cc3occc3n2CC1(C)C(=O)NC1CCCCC1 (stereo not drawn) | / | 0.9
Cc1nc2cc(NCc3ccccn3)ccc2n1C | 15* | 1.7
CC(C)c1ccc(-n2nnc(-c3nc(-c4ccccn4)no3)c2N)cc1 | / | 0.26
COc1ccc(-c2[nH]nc3nc(-c4ccc(O)cc4)cc(C(=O)O)c23)cc1 | / | 3.5
COCC(=O)Nc1ccc(OC2=NS(=O)(=O)c3ccccc32)cc1 | -0.35 | 1.5
O=C(Nc1ccc(Br)cc1)N1CC2CCCN2c2ccccc21 (stereo not drawn) | / | -2.4
CCOC(=O)Cn1cnc2sc(C)c(C)c2c1=O | -0.19 | -0.19
CC1CCC(NC(=O)c2cn(C)c3ccc(S(=O)(=O)N4CCC(C)CC4)cc3c2=O)CC1 (stereo not drawn) | -0.59 | /
C=CCn1c(SCC(=O)NCc2ccco2)nc2sc3c(c2c1=O)CCCC3 | -1.8 | /
Later entries
SMILES | CDC25B-CDK2 inh | TAR Tat displ
O=C(CCS(=O)(=O)c1ccc2c(c1)CCN2C(=O)C1CC1)Nc1ccccc1Cl | / | -0.07
CNc1nc(NCc2cc(OC)ccc2OC)c2cnn(C)c2n1 | / | 0.71
Cn1cnc(S(=O)(=O)NC2CCN(Cc3c(F)cccc3Cl)CC2)c1 | 0.73 | /
O=C1COc2ccccc2N1C(=O)c1ccc(Cl)cc1 | -1.2 | /
O=C(CSc1nc2ccccc2nc1C(F)(F)F)Nc1cccc(F)c1 | / | -0.28
O=C(Nc1ccc(F)cc1F)c1cc2c(s1)-c1ccccc1SC2 | 1.7 | 1.6
CCc1sc(C(C)(C)C)cc1NC(C)=O | -1.8 | /
Cc1c(C#N)c(N)c(C(=O)c2ccccc2)n1-c1ccccc1 | -1.6 | 1.6
COc1ccc(OC)c(C2CC(=O)N3CN(c4ccc(Br)cc4)CSC3=C2C#N)c1 (stereo not drawn) | 4.5* | -0.7
CCc1ccc(C2C(C(=O)OCCOC)=C(C)NC3=C2C(=O)CC(c2ccc(OC)cc2)C3)cc1 (stereo not drawn) | -1.4 | -0.21
COc1ccc(C2c3c(oc4ccccc4c3=O)C(=O)N2c2nncs2)cc1OC (stereo not drawn) | 2.4 | 0.43
Cn1cc(S(=O)(=O)N2CCOCC2)cc1C(=O)N1CCCC2CCCCC21 (stereo not drawn) | / | 1.4
O=C1c2cccnc2C(Nc2ccc(Br)cc2)N1Cc1ccc(F)cc1 (stereo not drawn) | / | 0.86
CC1CCC(NC(=O)Cn2ncn3c(cc4cc(F)ccc43)c2=O)CC1 (stereo not drawn) | -8.8 | -0.31
Cc1nnc2c(NCCC(C)C)nc3ccc(C(=O)c4ccccc4)cc3n12 | / | -0.17
CCCC(O)(c1ccc(Cl)cc1)C(CN1CCOCC1)c1ccccc1 (stereo not drawn) | / | 2.6
Cc1c(-c2ccc(Cl)cc2)[n+](=O)c2c(n1[O-])CCC2 | -3.4 | /
COc1ccc(Nc2ncc3c(n2)CCN(Cc2ccc(C)s2)C3)c(OC)c1 | / | 1
CCN(CC)C(=O)c1noc2c1COc1ccc(C)cc1-2 | / | 2.9
CCc1ccc(-c2[nH]c3c(c2-c2c(-n4cccc4)n(C)c(=O)[nH]c2=O)c(=O)[nH]c(=O)n3C)cc1 | -0.64 | 0.74
COc1ccc(CNCC2(O)CCOC(C)(C)C2)cc1 (stereo not drawn) | -1.5 | 1.5
Cc1[nH][nH]c(=O)c1C(c1ccccc1OCc1ccc(F)cc1)c1c(C)[nH][nH]c1=O | -0.95 | 0.78
O=C(O)CSCC(=O)Nc1cccnc1 | -0.82 | /
CCc1nnc2sc(Cc3ccc(OC)c(OC)c3)nn12 | -1 | 1.1
Cc1cccc(-n2nnc(-c3nc(-c4ccccc4Cl)no3)c2C)c1 | / | 1.6
CCCCNS(=O)(=O)c1ccc(OC)c(-c2nnc3c4ccccc4c(C)nn23)c1 | -1.5 | 0.13
Cc1cc(C)cc(NC2OC(=O)c3ccccc32)c1 (stereo not drawn) | 0.48 | 0.57
CCOCCCNC(=O)C(CC)n1c2ccccc2c2nc(=O)cc(C)n21 (stereo not drawn) | -1.2 | 0.97
CCOC(=O)c1cc(C#N)c(Sc2ccccc2N)nc1C(F)(F)F | 0.17 | /
Cc1cc(C2CCCN2S(=O)(=O)c2ccccc2)on1 (stereo not drawn) | / | 0.85
NC(=O)Cn1c(=O)n(Cc2ccc3c(c2)OCO3)c(=O)c2oc3ccccc3c21 | / | 1.7
Cn1c2ccccc2c2cnn(CC(=O)NCCN3CCCCCC3)c(=O)c21 | -1.1 | /
COCCCNc1ncnc2onc(-c3ccc(C)cc3)c12 | / | 1.2
COc1ccc(NS(=O)(=O)c2cccc(S(=O)(=O)c3ccc(Cl)cc3)c2)cc1 | -0.11 | 0.37
COc1ccc(Oc2c(C(F)(F)F)oc3c(CN4CCCC4)c(O)ccc3c2=O)cc1 | -0.76 | -1.1
CCOC(=O)c1sc(NC(=O)C(CC)Sc2nnc3c4ccccc4n(CC)c3n2)nc1C (stereo not drawn) | -1.8 | 0.92

Part of the list above, reformatted:
SMILES	CDC25B-CDK2 inh	TAR Tat displ
COc1ccc(CNCC2(O)CCOC(C)(C)C2)cc1 (stereo not drawn)	-1.5	1.5
Cc1[nH][nH]c(=O)c1C(c1ccccc1OCc1ccc(F)cc1)c1c(C)[nH][nH]c1=O	-0.95	0.78
O=C(O)CSCC(=O)Nc1cccnc1	-0.82	/
CCc1nnc2sc(Cc3ccc(OC)c(OC)c3)nn12	-1	1.1
Cc1cccc(-n2nnc(-c3nc(-c4ccccc4Cl)no3)c2C)c1	/	1.6
CCCCNS(=O)(=O)c1ccc(OC)c(-c2nnc3c4ccccc4c(C)nn23)c1	-1.5	0.13
Cc1cc(C)cc(NC2OC(=O)c3ccccc32)c1 (stereo not drawn)	0.48	0.57
CCOCCCNC(=O)C(CC)n1c2ccccc2c2nc(=O)cc(C)n21 (stereo not drawn)	-1.2	0.97
CCOC(=O)c1cc(C#N)c(Sc2ccccc2N)nc1C(F)(F)F	0.17	/
Cc1cc(C2CCCN2S(=O)(=O)c2ccccc2)on1 (stereo not drawn)	/	0.85
NC(=O)Cn1c(=O)n(Cc2ccc3c(c2)OCO3)c(=O)c2oc3ccccc3c21	/	1.7
Cn1c2ccccc2c2cnn(CC(=O)NCCN3CCCCCC3)c(=O)c21	-1.1	/
COCCCNc1ncnc2onc(-c3ccc(C)cc3)c12	/	1.2
COc1ccc(NS(=O)(=O)c2cccc(S(=O)(=O)c3ccc(Cl)cc3)c2)cc1	-0.11	0.37
COc1ccc(Oc2c(C(F)(F)F)oc3c(CN4CCCC4)c(O)ccc3c2=O)cc1	-0.76	-1.1
CCOC(=O)c1sc(NC(=O)C(CC)Sc2nnc3c4ccccc4n(CC)c3n2)nc1C (stereo not drawn)	-1.8	0.92

Continued.
SMILES | CDC25B-CDK2 inh | TAR Tat displ
c1ccc(-c2nc(-c3ccncc3)n[nH]2)nc1 | -0.19 | /
Cc1ccc(NS(=O)(=O)c2ccc(-c3n[nH]c(C)c3C)s2)cc1Cl | / | 0.59
CN1C(=O)C(C)(C)c2cc(S(=O)(=O)NCC3CCC(C(=O)NCc4ccco4)CC3)ccc21 (stereo not drawn) | / | 1.1
c1ccc2[nH]c(C3CCN(c4nn5cnnc5c5ccccc45)CC3)nc2c1 | 0.16 | 0.49
CC1CCCC(NS(=O)(=O)c2cc3c(cc2Cl)NC(=O)CO3)C1C (stereo not drawn) | / | 2.3
Cc1cc(=O)nc2c3ccccc3n(CC(=O)NCc3ccccn3)n12 | -0.58 | 1.3
CN1CCN(CCCNC(=O)c2cn(C3CCCC3)c(=O)c3c2c2ccccc2n3C)CC1 | -2.7 | /
Cc1cc(C)[n+](C)n1CC(O)Cn1c2ccccc2c2ccccc21 (stereo not drawn) | -1.8 | -0.51
CC(C)(O)C#Cc1ccc(/C=N/Nc2ncc(Cl)cc2C(F)(F)F)cc1 | 1.1 | /
O=C(NC1CCCC1)c1ccc(Nc2nc3ccccc3n3nnnc23)cc1 | -1.2 | 0.56
